Bioassay records as filed in PubChem BioAssay.
FGF22 binding: binders of human FGF22 protein, primary screen, FGF22 synaptogenesis inhibitor project, biophysical, thermal shift, single point. Fibroblast growth factor 22 (Homo sapiens), Q9HCT0. recombinant FGF22 thermal shift, SYPRO orange fluorescence; percent of sucrose octasulfate shift, DMSO zero. calls only at 9.99 µM. 340,000 compounds, 1.5% hits. AID 651658, 2012;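 active = melting point raised past a set limit in the mean and every replicate; three in four hits are not shown here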
Target sequence (Q9HCT0 whole entry, looked up): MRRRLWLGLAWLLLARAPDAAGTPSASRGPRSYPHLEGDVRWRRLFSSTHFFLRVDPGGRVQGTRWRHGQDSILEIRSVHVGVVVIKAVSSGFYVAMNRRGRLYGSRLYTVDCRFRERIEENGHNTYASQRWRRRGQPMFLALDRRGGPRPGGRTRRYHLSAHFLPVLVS
Calls only; i = inactive.

SMILES	FGF22 binding
COc1ccc2c3c([nH]c2c1)[C@@H](CO)N(C(=O)c1cccnc1)CC31CN(Cc2ccccc2)C1	i
COc1ccc(C(=O)N2C[C@@H]3[C@H](c4ccccc42)[C@H](CO)N3C(=O)c2ccc(F)cc2)cc1	i
O=C(C[C@@H]1CC[C@@H](NC(=O)c2ccccc2)[C@@H](CO)O1)NCc1ccc(Oc2ccccc2)cc1	i
O=C(Cc1ccncc1)NCC[C@@H]1CC[C@H](NC(=O)C2CCC2)[C@H](CO)O1	i
CN1c2ccc(-c3ccccc3)cc2[C@@H]2[C@@H](CCN2C(=O)CN2CCOCC2)[C@@H]1CO	i
Cc1ccc(-c2ccccc2[C@@H]2[C@H](C#N)N(c3ncc(-c4ccccc4)s3)[C@H]2CO)cc1	i
CC=Cc1ccc2n(c1=O)C[C@H]1[C@H](CO)[C@@H](C(=O)NC3CCC3)N(C(=O)C3CCC3)[C@@H]21 (mixture of isomers)	i
CCC(=O)N1C[C@H](C)[C@H](OC)CN(C)C(=O)c2ccc(NC(=O)c3ccccc3)cc2OC[C@@H]1C	i
CCNC(=O)[C@@H]1[C@@H](CO)[C@@H]2Cn3c(ccc(-c4ccccc4F)c3=O)[C@@H]2N1C(C)=O	i
C[C@@H]1CN([C@H](C)CO)C(=O)c2cc(NC(=O)Cn3cnnn3)ccc2O[C@@H]1CN(C)Cc1ccc2c(c1)OCO2	i
C[C@@H]1CN([C@H](C)CO)C(=O)c2cccc(NS(=O)(=O)c3cccs3)c2O[C@@H]1CN(C)C(=O)Nc1ccc2c(c1)OCO2	i
C=CCCC1CN(Cc2ccc(OC)cc2)S(=O)(=O)c2c(NCc3cc(OC)c(OC)c(OC)c3)cccc2O1 (stereo not drawn)	i
COc1ccc(S(=O)(=O)N(C)C[C@@H]2OCc3ccccc3-c3c(n(C)c4ccccc34)C(=O)N([C@@H](C)CO)C[C@H]2C)cc1	i
C[C@@H]1CN([C@H](C)CO)C(=O)Cc2cc(N(C)C)ccc2O[C@H]1CN(C)C(=O)NC1CCCCC1	i
C[C@@H]1CN([C@H](C)CO)C(=O)c2cccc(N(C)C)c2O[C@@H]1CN(C)C	i
COc1cccc(CN(C)C[C@@H]2OCc3cn(nn3)CCCC(=O)N([C@H](C)CO)C[C@@H]2C)c1	i
COCC#Cc1cnc2c(c1)C(=O)N([C@@H](C)CO)C[C@@H](C)[C@H](CN(C)Cc1ccccc1)O2	i
COc1ccc(NC(=O)Nc2ccc3c(c2)[C@H]2C[C@H](CC(=O)NCC(F)(F)F)O[C@H](CO)[C@H]2O3)cc1	i
COc1ccc(-c2cc(NC(=O)Cc3c(C)[nH]c4ccccc34)ccc2Nc2cccnc2)cc1F	i
CO[C@H]1CN(C)C(=O)c2ccc(NC(C)=O)cc2OC[C@H](C)N(S(=O)(=O)c2cn(C)cn2)C[C@H]1C	i
C[C@@H]1CN([C@H](C)CO)C(=O)Cc2cc(NS(=O)(=O)c3cn(C)cn3)ccc2O[C@H]1CN(C)CC1CC1	i
COc1ccc(S(=O)(=O)Nc2ccc3c(c2)C(=O)N([C@@H](C)CO)C[C@H](C)[C@@H](CN(C)S(=O)(=O)c2ccc(C)cc2)OCCCC[C@@H](C)O3)cc1	i
O=C(C[C@@H]1CC[C@H]2[C@@H](COC[C@H](O)CN2C(=O)c2ccccc2F)O1)N1CCOCC1	i
C[C@H]1CN([C@@H](C)CO)C(=O)Cc2cc(NC(=O)Cc3cn(C)c4ccccc34)ccc2O[C@@H]1CN(C)Cc1ccc(Oc2ccccc2)cc1	i
C[C@@H]1CN([C@H](C)CO)C(=O)c2cc(C#C[C@@H](C)O)cnc2O[C@@H]1CN(C)Cc1ccccn1	i
COCC(=O)Nc1ccc2c(c1)C(=O)N(C)[C@H]1CC[C@@H](CC(=O)NCc3ccc(OC)cc3)O[C@@H]1CO2	i
Cc1ccc(-c2cnc3c(c2)C(=O)N([C@@H](C)CO)C[C@H](C)[C@H](CN(C)C(=O)c2ccncc2)O3)cc1	i
CNC(=O)C[C@H]1CC[C@@H]2[C@@H](COc3ccc(NC(=O)Nc4cc(C)cc(C)c4)cc3C(=O)N2C)O1	i
CC(C)NC(=O)Nc1ccc2c(c1)C(=O)N([C@@H](C)CO)C[C@@H](C)[C@H](CN(C)C(=O)Cc1ccccc1)OCCCC[C@H](C)O2	i
CO[C@@H]1CN(C)C(=O)c2cc(NC(=O)C3CC3)ccc2OC[C@@H](C)N(Cc2cccc(F)c2)C[C@H]1C	i
COc1cccc(NC(=O)N2[C@@H]3CNC[C@H]2C3c2ccc(-c3cccc(C(=O)N(C)C)c3)cc2)c1 (stereo partly drawn)	i
COC(=O)C[C@H]1CC[C@@H]2[C@H](COc3ccc(NC(=O)c4cnccn4)cc3C(=O)N2C)O1	i
CC(C)NC(=O)N(C)C[C@H]1OCc2ccccc2-c2c(n(C)c3ccccc23)C(=O)N([C@H](C)CO)C[C@@H]1C	i
COC(=O)C[C@@H]1C[C@@H]2c3cc(N)ccc3O[C@@H]2[C@@H](CO)O1	i
C[C@@H]1CN([C@H](C)CO)C(=O)Cc2cc(NC(=O)Cc3cn(C)c4ccccc34)ccc2O[C@@H]1CN(C)CC1CC1	i
COCC(=O)N1CC2(C1)[C@H](c1ccc(C3=CCCC3)cc1)[C@@H](CO)N2C(=O)COC	i
CCCC#Cc1ccc([C@@H]2[C@H]3CN(S(=O)(=O)c4ccccc4C)CCCCN3[C@H]2CO)cc1	i
C[C@H](CO)N1C[C@H](C)[C@H](CN(C)Cc2ccncc2)Oc2ccc(NC(=O)Cc3cn(C)c4ccccc34)cc2C1=O	i
C[C@H](CO)N1C[C@H](C)[C@H](CN(C)C(=O)Nc2ccc(F)cc2)Oc2ncc(C3=CCCC3)cc2C1=O	i
C[C@H](CO)N1C[C@H](C)[C@H](CN(C)S(=O)(=O)c2ccc(Cl)cc2)Oc2c(NS(=O)(=O)c3cn(C)cn3)cccc2C1=O	i
CN(C)C(=O)C[C@H]1CC[C@@H]2[C@H](COc3ccc(NC(=O)C4CC4)cc3C(=O)N2C)O1	i
N#C[C@H]1[C@@H](c2ccc(C#CC3CCCCC3)cc2)[C@H](CO)N1C(=O)c1cccc(F)c1	i
CN(C)c1ccc2c(c1)[C@@H]1C[C@@H](CC(=O)NCc3ccccc3)O[C@H](CO)[C@@H]1O2	i
O=C(C[C@H]1CC[C@@H](NC(=O)Nc2ccc(F)cc2)[C@H](CO)O1)NCc1ccccn1	i
CC(C)CC#Cc1ccc2c(c1)O[C@H](CN(C)C(=O)CC1CC1)[C@H](C)CN([C@@H](C)CO)S2(=O)=O	i
Cc1noc(C)c1S(=O)(=O)Nc1ccc2c(c1)C(=O)N([C@@H](C)CO)C[C@H](C)[C@H](CN(C)S(=O)(=O)c1cn(C)cn1)O2	i
Cc1cccc(S(=O)(=O)N2CC[C@@H]3[C@@H](CO)N(C)c4ccc(Br)cc4[C@@H]32)c1	i
C[C@@H]1CN([C@H](C)CO)C(=O)c2cc(NC(=O)CCCN(C)C)ccc2O[C@@H]1CN(C)C(=O)Nc1ccccc1	i
CCCNC(=O)N(C)C[C@H]1Oc2ncc(C#CC3CCCCC3)cc2C(=O)N([C@@H](C)CO)C[C@H]1C	i
C[C@@H]1CN([C@@H](C)CO)C(=O)Cc2cc(NC(=O)c3ccncc3)ccc2O[C@@H]1CN(C)S(=O)(=O)c1ccc(F)cc1	i
C[C@@H]1CN([C@@H](C)CO)C(=O)c2cccc(NC(=O)c3ccc(-c4nccs4)cc3)c2O[C@H]1CN(C)S(=O)(=O)c1ccc(F)cc1	i
C[C@H](CO)N1C[C@H](C)[C@H](CN(C)Cc2ccc3c(c2)OCO3)OCc2ccccc2-c2ccccc2C1=O	i
O=C(C[C@H]1CC[C@@H]2[C@H](COC[C@@H](O)CN2Cc2nccs2)O1)NCc1ccc(Cl)cc1	i
O=C(C[C@@H]1CC[C@H]2[C@@H](COC[C@@H](O)CN2Cc2ccc(Oc3ccccc3)cc2)O1)N1CCOCC1	i
C[C@H]1CCCCO[C@H](CN(C)C(=O)CCCN(C)C)[C@@H](C)CN([C@@H](C)CO)C(=O)c2cc(NC(=O)Nc3ccc(F)cc3)ccc2O1	i
CCC(=O)N1C[C@H](C)[C@@H](OC)CN(C)C(=O)c2ccc(NC(=O)Nc3ccc(Cl)cc3)cc2OC[C@@H]1C	i
CC(C)NC(=O)N1[C@H](C#N)[C@@H](c2ccc(C#CC3CCCC3)cc2)[C@H]1CO	i
C[C@H](CO)N1C[C@H](C)[C@@H](CN(C)S(=O)(=O)c2ccc(F)cc2)Oc2ccc(NC(=O)Cn3cnnn3)cc2CC1=O	i
C[C@@H]1CN([C@@H](C)CO)C(=O)c2cccc(NS(=O)(=O)c3cccs3)c2O[C@@H]1CN(C)C(=O)NC1CCCCC1	i
C[C@H]1CN([C@@H](C)CO)C(=O)Cc2cc(NC(=O)c3ccncc3)ccc2O[C@H]1CN(C)Cc1ccc(C(=O)Nc2ccccc2N)cc1	i

In another format: results already given.
Molecule,FGF22 binding
CCC(=O)N1C[C@H](C)[C@@H](OC)CN(C)C(=O)c2ccc(NC(=O)Nc3ccc(Cl)cc3)cc2OC[C@@H]1C,i
CC(C)NC(=O)N1[C@H](C#N)[C@@H](c2ccc(C#CC3CCCC3)cc2)[C@H]1CO,i
C[C@H](CO)N1C[C@H](C)[C@@H](CN(C)S(=O)(=O)c2ccc(F)cc2)Oc2ccc(NC(=O)Cn3cnnn3)cc2CC1=O,i
C[C@@H]1CN([C@@H](C)CO)C(=O)c2cccc(NS(=O)(=O)c3cccs3)c2O[C@@H]1CN(C)C(=O)NC1CCCCC1,i

The list goes on:
SMILES	FGF22 binding
C[C@@H]1CN([C@@H](C)CO)S(=O)(=O)c2ccc(C#Cc3ccncc3)cc2O[C@H]1CN(C)C(=O)C1CCOCC1	i
CCCC#Cc1ccc2c(c1)O[C@H](CN(C)C(=O)CC)[C@H](C)CN([C@@H](C)CO)S2(=O)=O	i
C[C@@H]1CCCCO[C@@H](CN(C)C(=O)CCCN(C)C)[C@@H](C)CN([C@H](C)CO)C(=O)c2cc(NC(=O)Nc3ccccc3)ccc2O1	i
CN(C)C(=O)C[C@H]1C[C@@H]2c3cc(NC(=O)C4CCOCC4)ccc3O[C@@H]2[C@@H](CO)O1	i
C[C@@H]1CN([C@H](C)CO)C(=O)c2cccc(NC(=O)NC3CCCCC3)c2O[C@@H]1CN(C)S(C)(=O)=O	i
COc1ccc(S(=O)(=O)N(C)C[C@@H]2OCCCC[C@H](C)Oc3ccc(NC(=O)Cc4ccccc4)cc3C(=O)N([C@H](C)CO)C[C@H]2C)cc1	i
CCCNC(=O)N(C)C[C@@H]1Oc2ncc(C#CCc3ccccc3)cc2C(=O)N([C@@H](C)CO)C[C@@H]1C	i
Cc1noc(C)c1NC(=O)Nc1ccc2c(c1)C(=O)N([C@H](C)CO)C[C@@H](C)[C@H](CN(C)C(=O)Nc1ccc3c(c1)OCO3)OCCCC[C@@H](C)O2	i
CC(C)C#Cc1ccc([C@@H]2[C@@H](CO)N3CCCCN(C(=O)Nc4ccccc4)C[C@@H]23)cc1	i
COc1ccc(N2C(=O)c3[nH]nc(-c4ccccc4)c3C2c2ccc(Br)cc2)cc1 (stereo not drawn)	i
COc1cccc(NC(=O)N2C[C@@H](O)COC[C@@H]3O[C@@H](CC(=O)NCc4ccccc4F)CC[C@H]32)c1	i
CC=Cc1ccc2n(c1=O)C[C@H]1[C@H](CO)[C@@H](C(=O)NC3CCCCC3)N(C(=O)C3CC3)[C@@H]21 (mixture of isomers)	i
C[C@H]1CN([C@@H](C)CO)C(=O)Cc2cc(NS(=O)(=O)c3cccs3)ccc2O[C@@H]1CN(C)C(=O)Nc1cccc2ccccc12	i
C[C@H](CO)N1C[C@H](C)[C@@H](CN(C)Cc2ccncc2)Oc2ncc(C#Cc3ccccn3)cc2C1=O	i
CO[C@@H]1CN(C)C(=O)c2ccc(NC(=O)C3CCOCC3)cc2OC[C@@H](C)N(Cc2cccnc2)C[C@@H]1C	i
C[C@@H]1CCCCO[C@@H](CN(C)S(=O)(=O)c2cccs2)[C@H](C)CN([C@@H](C)CO)C(=O)c2cc(NC(=O)CCCN(C)C)ccc2O1	i
COc1cc(CN2CC3(CN(C(=O)Nc4cccc(F)c4)C3)c3c(n(C)c4cc(OC)ccc34)[C@H]2CO)cc(OC)c1	i
C[C@@H]1CN([C@H](C)CO)C(=O)c2cc(NS(=O)(=O)c3ccc(F)cc3)ccc2O[C@@H]1CN(C)C(=O)Nc1cccc2ccccc12	i
C[C@H]1CCCCO[C@H](CN(C)Cc2ccc3c(c2)OCO3)[C@@H](C)CN([C@@H](C)CO)C(=O)c2cc(NC(=O)C3CCCCC3)ccc2O1	i
O=C(Nc1ccc(Cl)cc1)N1C[C@@H]2[C@H](c3ccccc31)[C@@H](CO)N2C(=O)c1cccnc1	i
Cc1cccc(-c2ccc([C@H]3[C@@H](CO)N4CCCCN(S(=O)(=O)c5ccccc5C)C[C@@H]34)cc2)c1	i
CC(C)CC#Cc1ccc2c(c1)O[C@@H](CN(C)Cc1ccccc1F)[C@H](C)CN([C@@H](C)CO)S2(=O)=O	i

Some of these compounds in order of count of non-hydrogen atoms, low to high:
SMILES	FGF22 binding
CCCC#Cc1ccc2c(c1)O[C@H](CN(C)C(=O)CC)[C@H](C)CN([C@@H](C)CO)S2(=O)=O	i
Cc1ccc(-c2ccccc2[C@@H]2[C@H](C#N)N(c3ncc(-c4ccccc4)s3)[C@H]2CO)cc1	i
CC(C)CC#Cc1ccc2c(c1)O[C@H](CN(C)C(=O)CC1CC1)[C@H](C)CN([C@@H](C)CO)S2(=O)=O	i
CNC(=O)C[C@H]1CC[C@@H]2[C@@H](COc3ccc(NC(=O)Nc4cc(C)cc(C)c4)cc3C(=O)N2C)O1	i
C[C@@H]1CN([C@H](C)CO)C(=O)c2cc(NS(=O)(=O)c3ccc(F)cc3)ccc2O[C@@H]1CN(C)C(=O)Nc1cccc2ccccc12	i

Not all compounds are listed. The share of hits here may be higher or lower than overall.
